NPYLR7 ag – mosquito NPYLR7 agonism; HEK293T NPYLR7/Galpha15, GCaMP6s calcium fluorescence; activation, % at 10 µM; 270,000 tested, 0.15% active; AID 1259423; in the data active means activation above about 40%;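 further: 0% = vehicle and 100% = reference agonist at the receptor; some compounds past the cut are filed as inactive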
NPYLR7 ag max-min – recorded beside NPYLR7 ag, whose call it bears; activation, %; measured here: Max-Min RFU normalised activation; some inactives read as strong as hits;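 span of the calcium signal over five minutes; 0% = vehicle and 100% = native peptide agonist; compound fluorescence can raise it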
Numbers without * were called inactive; & = joins results of further samples. Some of the compounds tested; count on the stated rates, not on these rows.

SMILES	NPYLR7 ag	NPYLR7 ag max-min
CCCC1CCC(C(=O)Nc2nnc(SCC)s2)CC1 (stereo not drawn)	55*	45*
CCOC(=O)[C@@H]1CN2CCN(C(=O)c3csc(-c4cccs4)n3)C[C@@H]2[C@H]1c1ccccc1	0	3
CCNC(=O)Nc1ccc(N(C)C)c(CN(C(=O)Nc2cccc(F)c2)C(C)C(C)C)c1 (stereo not drawn)	18	30
Cn1ncc(Br)c1C(=O)NC1CCCCC1	1	-1
OCc1cnc(SCc2ccc(Br)cc2)n1Cc1ccc(F)cc1	3	1
O=C(CCl)N1N=C(c2ccccc2)CC1c1ccccc1 (stereo not drawn)	-7	-16
CNc1cncc(-c2ccc(C(=O)NC3CC3)cc2)n1	2	1
O=C(CSc1nnc(-c2ccc(Cl)cc2)n1-c1ccccc1)N/N=C\c1cccc(Oc2ccccc2)c1	10	4
O=S(=O)(NC1CC1)c1ccccc1Cl	1	7
CCCc1cc(=O)n(CC(=O)N2CC(C)OC(C)C2)c(-n2nc(C)cc2C)n1 (stereo not drawn)	-3	-2
CC(O)(C#CCN1CCCCC1)C1CC1 (stereo not drawn)	0	1
Cn1c2c(c3ccccc31)C[C@H]1C[C@@H]2[C@@H](Oc2ccccn2)CN1C(=O)c1cc2ccccc2c(=O)o1	9	19
O=C(N=Nc1c(O)[nH]c2cc3c(cc12)OCCCO3)C1CCCCC1	-1	32
CCOc1ccc2oc(C(=O)Nc3sc(C)c(C)c3C#N)c(C)c2c1	4	5
CC1(C(=O)N2CCN(C(=O)c3ccco3)CC2)CCN1Cc1ccsc1 (stereo not drawn)	5	1
Cn1ccnc1-c1nccn1CCN1CCCC(c2ccccc2)C1 (stereo not drawn)	9	1
CC(C)c1onc(C(=O)NCC2CCCO2)c1[N+](=O)[O-] (stereo not drawn)	9	8
Cc1ccc(-c2nc(C=Nc3cccc4ccccc34)c(O)o2)cc1	3	-5
COc1ccccc1CN1CC(OC)CN(C(=O)OCC(C)(C)C)CC1=O (stereo not drawn)	2	14
CCCNc1nc2c(C)cccn2c(=O)c1C=C1SC(=S)N(CCCOC)C1=O	14	19
O=C(NC1CCCCC1)c1ccccc1Oc1ccccc1	1	4
CC(C)(C)NC[C@H](O)c1ccc(O)c(CO)c1	-1	-1
O=C(O)c1cn(CC2CCCO2)cc2c(=O)n(-c3ccccc3)nc1-2 (stereo not drawn)	-5	-4
CCOC(=O)c1c(C)n(-c2ccccc2)c2ccc(OC(=O)c3ccc(-c4ccccc4)cc3)cc12	-1	-6
O=C1CCC(CCNCc2cc3c(cc2Cl)OCO3)N1CC1C2CC3CC(C2)CC1C3 (stereo not drawn)	19	8
O=C1OC(c2cc([N+](=O)[O-])ccc2Cl)=N/C1=C\C=C\c1ccccc1	-2	-6
CC(NCC(=O)Nc1ccc(F)c(F)c1)c1cc(F)c(Cl)cc1Cl (stereo not drawn)	0	-3
CCOCCCN(CC(=O)N1CCc2sccc2C1c1ccc(Cl)cc1)C(=O)CCC1CCCC1 (stereo not drawn)	-4	4
COc1ccc(C(=O)N2CCc3ccccc3C2c2ccc(Cl)cc2)cc1 (stereo not drawn)	-5	-3
CS(=O)(=O)c1sc2nc(-c3ccccc3)cc(-c3ccccc3)c2c1N	14	6
Cc1cccc(NC(C)c2nnc(-c3cccs3)o2)c1C (stereo not drawn)	0	-1
CCOC(=O)CCC(=O)Nc1ccc(-n2nc(OC(C)C)nc2-c2cccc(C(F)(F)F)c2)cc1	9	8
COC(=O)c1ccc(NCC(=O)N(c2ccccc2)C2CCS(=O)(=O)C2)cc1 (stereo not drawn)	-1	-6
c1ccc2oc(N3CCN(Cc4nc(-c5cnccn5)no4)CC3)nc2c1	14	0
CC1(C)CC(=O)c2cc3c4ccccc4ccc3[n+](-c3ccccc3)c2C1	8	7
Cc1cc(C(=O)N(Cc2cccnc2)c2nc3ccc(F)cc3s2)nn1C	5	0
CNC(=O)c1nnc2n1CCN(C(=O)c1cccc(C)c1C)C2	9	3
Cc1ccc(NC(=O)N2CCC(Cc3ccc(C(C)(C)C)cc3)CC2)cc1	24	15
N#CC(C#N)=Cc1cccc(OCc2ccccc2)c1	3	11
CCCCC1CCCN1C(=O)c1sc(N)nc1CC (stereo not drawn)	10	6
CCCCCc1ccc(C(=O)Nc2ccc(-n3nc(OCC(C)C)nc3-c3ccc(C(F)(F)F)cc3)cc2)cc1	7	19
COc1cccc(COC(CN2CCN(C(=O)C3CCCCC3)CC2)c2ccc(Cl)cc2)c1 (stereo not drawn)	-2	10
CC(=O)c1c(C)[nH]c(C(=O)OCC(=O)N2CC(C)CC(C)C2)c1C (stereo not drawn)	4	-1
NC(=O)c1cc2ccc(O)cc2oc1=Nc1cccc(F)c1	8	0
CCn1nc(-c2ccccc2)c(-c2ccccc2)c(C(=O)NC2CCS(=O)(=O)C2)c1=O (stereo not drawn)	-3	23
COc1ccc(C(NC(=O)c2ccc(-c3ccco3)[nH]c2=O)C2CC2)cc1 (stereo not drawn)	8	4
O=C(Nc1ccc(OC(F)F)cc1)c1ccccn1	8	4
Cc1cc(C(=O)CN2C(=O)NC(CCS(C)(=O)=O)C2=O)c(C)n1C1CC1 (stereo not drawn)	3	0
C/C=C(\C)c1c(-c2ccccc2)ncn1Cc1cccnc1	18	9
Cc1ccc(C=C2CN(C)CC(=Cc3ccc(C)o3)C2=O)o1	11	7
OC(COc1cccc2[nH]ccc12)CN1CCC2(CCOC2)C1 (stereo not drawn)	0	-1
COC(=O)c1ccc(CSc2ncnc3c2nnn3Cc2ccc(F)cc2)o1	17	18
O=S(=O)(CCn1cc(CCc2ccccc2)nn1)N1CCCC1	12	8
COCCN(Cc1c(-c2ccccc2)noc1N1CCN(C)CC1)C(=O)COC	7	7
Cc1ccc(-n2c(SCC(=O)NC(C)C(C)C)nnc2N2CCCCC2)cc1 (stereo not drawn)	0	4
CC1CCc2c(sc(=O)n2CCCOCC(F)(F)F)C1 (stereo not drawn)	-3	-3
CCOCCn1c(=NC(=O)c2ccn(C)n2)sc2cc(C)c(C)cc21	2	7
COc1cc(CN)ccc1OC1CCCC1	0	-2
Cn1cccc1C(=O)N1CCn2c(nnc2C(=O)NCC2CC2)C1	5	5
COc1cccc(-c2cnc(-c3cccc(CNC(=O)c4cc(F)cc(F)c4)c3)[nH]2)c1	1	-6
(continued)
SMILES	NPYLR7 ag	NPYLR7 ag max-min
CCC1(C)NC(=O)N(NC(=O)Cc2ccc(OC)cc2)C1=O (stereo not drawn)	-3	-5
O=C(c1ccc2[nH]ccc2c1)N1CCCC(Cn2cc(C3CCCC3)nn2)C1 (stereo not drawn)	3	5
Cc1ccc(S(=O)(=O)CNC(=O)C2c3ccccc3C(=O)N2Cc2ccc(Cl)cc2)cc1 (stereo not drawn)	19	15
CC1CN(C(=O)CCN2CC3=C(C2=O)C(c2cccc(Cl)c2Cl)NC(=O)N3C)CC(C)O1 (stereo not drawn)	-1	6
Cc1ccc(N=c2oc3cc(O)ccc3cc2C(N)=O)cc1	-6	-7
O=C(/C=C/c1cccs1)N1CCCC(c2nc(-c3cccnc3)ncc2-c2ccccc2F)C1 (stereo not drawn)	23	14
CCOC(=O)C1CCCN(C(=O)c2nn(-c3ccc(OC)c(OC)c3)c(=O)n(Cc3ccccc3Cl)c2=O)C1 (stereo not drawn)	12	8
O=C(NCCN1CCOC1=O)C(=O)NCCN1CCOC1=O	15	8
CCOC(=O)C(N=Nc1sc(C(=O)OCC)c(C)c1C(=O)OCC)=C(C)O	2	3
Cc1ccccc1-c1cnc(C(O)c2cccc(C)c2C)[nH]1 (stereo not drawn)	0	-2
COc1ccc(OC)c(S(=O)(=O)n2nc(C)c(S(=O)(=O)N3CCCCC3)c2C)c1	4	2
Cc1nonc1C(=O)NC(C)c1cnn(-c2cccc3ccccc23)c1C (stereo not drawn)	20	28
COCCN(CC(=O)N(Cc1cccn1Cc1ccccc1Cl)CC(C)C)C(=O)c1cccc(C(F)(F)F)c1	-13	-11
CNc1ncc(C(=O)N2CCC(Cn3cc(C4CCCC4)nn3)CC2)cn1	2	-3
CC1(NC(=O)NCCCCCCNC(=O)NC2(C)CCS(=O)(=O)C2)CCS(=O)(=O)C1 (stereo not drawn)	-1	-9
CC(=O)Nc1ccc(NC(=O)C(C)(C)c2ccccc2)cc1	9	7
C=CCOc1c(Br)cc(CNCC(OC)OC)cc1OC	5	1
CCC(C)C(NC(=O)Nc1ccc(C)c(C)c1)C(=O)Nc1nnc(-c2ccc3c(c2)OCO3)s1 (stereo not drawn)	0	6
CCOC(=O)C(C)Sc1nc2c([nH]c3ccccc32)c(=O)n1-c1ccccc1 (stereo not drawn)	0	10
CCOc1ccccc1N1CCN(C(=O)CCCSc2nnc(Cc3ccccc3)n2-c2ccccc2)CC1	-4	5
N#Cc1cc(C#N)c(=S)[nH]c1N	2&4	8&0
O=S(=O)(NCC(c1ccccc1)c1ccccc1)c1ccc(F)cc1	14	11
O=C(CC1CCCCC1)NCC1COc2ccccc2O1 (stereo not drawn)	-6	-11
CC(C)CN(Cc1cccc(OS(C)(=O)=O)c1)S(=O)(=O)c1ccc(Cl)cc1	-10	-5
O=C(NCCc1cccs1)c1cccnc1Nc1cccc(Cl)c1	4	1
CCCCCCCCc1nnc(N)s1	4	1
CN(C)c1nc(-c2ccccc2)nc2c1CCN(C(=O)C1CCCO1)C2 (stereo not drawn)	-4	-7
CCOc1ccc(S(=O)(=O)c2cnc(SCC(=O)Nc3ccc(C)cc3C)[nH]c2=O)cc1	-1	-5
Cc1nc(-c2cccc(-c3cccc4ccnn34)c2)no1	38	21
COc1ccc2sc(N(CCN(C)C)C(=O)c3cccc([N+](=O)[O-])c3)nc2c1	-10	-12

Some of these compounds in order of SMILES length, smallest number first.
SMILES	NPYLR7 ag	NPYLR7 ag max-min
CCCCCCCCc1nnc(N)s1	4	1
N#Cc1cc(C#N)c(=S)[nH]c1N	2&4	8&0
Cc1cccc(NC(C)c2nnc(-c3cccs3)o2)c1C (stereo not drawn)	0	-1
Cc1ccc(N=c2oc3cc(O)ccc3cc2C(N)=O)cc1	-6	-7
Cc1ccccc1-c1cnc(C(O)c2cccc(C)c2C)[nH]1 (stereo not drawn)	0	-2
CNC(=O)c1nnc2n1CCN(C(=O)c1cccc(C)c1C)C2	9	3
CC(C)c1onc(C(=O)NCC2CCCO2)c1[N+](=O)[O-] (stereo not drawn)	9	8
c1ccc2oc(N3CCN(Cc4nc(-c5cnccn5)no4)CC3)nc2c1	14	0
Cc1ccc(NC(=O)N2CCC(Cc3ccc(C(C)(C)C)cc3)CC2)cc1	24	15
COc1cccc(COC(CN2CCN(C(=O)C3CCCCC3)CC2)c2ccc(Cl)cc2)c1 (stereo not drawn)	-2	10
CCOCCCN(CC(=O)N1CCc2sccc2C1c1ccc(Cl)cc1)C(=O)CCC1CCCC1 (stereo not drawn)	-4	4
COc1ccc(OC)c(S(=O)(=O)n2nc(C)c(S(=O)(=O)N3CCCCC3)c2C)c1	4	2
CCOc1ccc(S(=O)(=O)c2cnc(SCC(=O)Nc3ccc(C)cc3C)[nH]c2=O)cc1	-1	-5
CCOC(=O)c1c(C)n(-c2ccccc2)c2ccc(OC(=O)c3ccc(-c4ccccc4)cc3)cc12	-1	-6
CCOC(=O)C1CCCN(C(=O)c2nn(-c3ccc(OC)c(OC)c3)c(=O)n(Cc3ccccc3Cl)c2=O)C1 (stereo not drawn)	12	8

Next section:
SMILES	NPYLR7 ag	NPYLR7 ag max-min
CC1(C)S[C@@H]2[C@H](NC(=O)COc3ccccc3)C(=O)N2[C@H]1C(=O)O	-1	-8
Fc1ccc(CN(Cc2ccncc2)Cc2ccc(-c3ccn[nH]3)o2)cc1	2	-2
COc1ccc(-n2nnc3c(=O)n(CC(=O)NC4CCCCC4)cnc32)cc1	2	2
CC1(Cc2ccccc2Cl)C(=O)Nc2c(Cl)ccc(Cl)c21 (stereo not drawn)	-1	3
O=[N+]([O-])c1ccc2c(c1)S(=O)(=O)N=C2N1CCOCC1	16	13
COCCN(Cc1ccccc1OS(C)(=O)=O)C(=O)c1cccc(F)c1	-3	2
CNC(=O)NC(=O)CSc1nnc(-c2cccs2)n1CC(N)=O	1	6
Nc1ccccc1Oc1c(F)c(F)c(Oc2ccccc2N)c(F)c1F	19	13
CC(=O)N[C@H]1C[C@@H]2c3[nH]c4ccccc4c3C[C@@H](C(=O)NC(c3ccccc3)c3ccccn3)N2C1=O (stereo partly drawn)	5	7
Cc1n[nH]c(C)c1S(=O)(=O)NCCOc1ccc(-c2cccs2)nn1	-1	0
Cc1cc(NC(=O)c2cccc(Oc3ccccc3)c2)no1	8	11
O=C(c1cnc2ccccn2c1=O)N1CCc2ccccc21	0	-2
CCCN(CC#N)Cc1noc(Cc2ccc(Br)cc2)n1	5	7
CC1=Nc2nc(SCC(C)C)[nH]c(=O)c2C(c2sccc2C)C1C(=O)OC(C)C (stereo not drawn)	0	3
O=C(O)CSc1nc2ccccc2n1C1CCCCC1	-4	-9
CN1C(=CC=Nc2ccccc2I)C(C)(C)c2ccccc21	-4	-4
CC(=O)Nc1nnc(-c2cc3ccccc3oc2=O)s1	-4	-2
COC(=O)CCNC(=O)c1ccc([N+](=O)[O-])o1	4	1
COc1ccc(CNCC(O)c2nnn(C)n2)cc1OC (stereo not drawn)	0	0
COc1cc(OC)c(NC(=O)Cn2cnc3c(sc4nc(C)cc(C)c43)c2=O)cc1Cl	5	11
CC(C)(C)c1ccc(C(=S)NC2CCCC2)cc1	-7	-8
NC(=O)c1cc2cc(Br)ccc2oc1=O	-4	-5
Cc1cc2n(n1)CCCN(C(=O)C1CC3(CCNCC3)CN1)C2 (stereo not drawn)	10	9
CC(C1CC1)N(C)S(=O)(=O)N1CCc2c([nH]c3ccccc23)C1C (stereo not drawn)	9	11
CCOC(=O)[C@H]1[C@@H](O)C(=O)N(Cc2ccccc2)C12CCN(C(=O)OCc1ccccc1)CC2	2	13

Screening data as filed in PubChem BioAssay.
